High-throughput results: PubChem BioAssay, National Center for Advancing Translational Sciences (NCATS)
SARS PLpro yeast: blocks SARS-CoV papain-like protease in a yeast assay; S. cerevisiae expressing SARS-CoV PLpro, growth rescue; control for the full effect not named in the record; Potency, µM (doses to about 32.9 µM), for inactives: top-dose activity, positive = growth rescue; 330,000 tested, 0.19% active; active means well fitted rising curve with a large enough effect; inconclusive means small, poorly fitted or top-dose-only effect; inactive means no such curve, though single readings can be large or run the other way; also: 0% is about no effect; nearly all actives have a fitted effect of over 55% in size; growth read by luminescence after 48 h
NS1 inh: inhibitors of influenza NS1 protein function; Potency, µM (highest dose often 46.1 µM), without a hit: top-dose activity, positive = more growth; AID 2326; 270,000 tested, 0.4% active; S. cerevisiae slowed by influenza A NS1, growth recovery by OD600; active means well fitted rising curve with a large enough effect; inconclusive means small, poorly fitted or top-dose-only effect; inactive means no such curve, though single readings can be large or run the other way; also: nearly all actives have a fitted effect of over 50% in size
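Compounds were scored for reversing the slow growth caused by influenza A NS1 in S. cerevisiae, measured by optical density at 600 nm. Assay medium contained 2% galactose at pH 6.0; NS1-free yeast of the same strain were the positive control.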
Cruzain inh Det: blocks cruzain activity in presence of Triton detergent; 200,000 tested, 0.43% active; purified cruzain, Z-FR-AMC fluorescence, 0.01% Triton; Potency, µM, inactives show max response, negative = inhibition, actives largely listed as inhibitors; AID 1478;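 also: plate controls were neutral wells for no effect and buffer without enzyme for full effect; nearly all actives have a fitted effect of over 40% in size; top concentration of the series not given in the record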
Target sequence (P25779 123-467 limits assumed): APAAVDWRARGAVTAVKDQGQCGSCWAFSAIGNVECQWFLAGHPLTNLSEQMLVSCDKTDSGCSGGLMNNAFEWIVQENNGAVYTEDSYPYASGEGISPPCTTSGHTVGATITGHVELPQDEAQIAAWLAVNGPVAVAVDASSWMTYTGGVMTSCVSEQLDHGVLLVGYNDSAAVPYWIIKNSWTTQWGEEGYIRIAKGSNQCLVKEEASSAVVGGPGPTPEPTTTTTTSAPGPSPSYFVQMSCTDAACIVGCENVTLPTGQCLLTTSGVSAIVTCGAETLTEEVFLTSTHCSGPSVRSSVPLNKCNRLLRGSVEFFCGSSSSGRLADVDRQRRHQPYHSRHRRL
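Purified cruzain (1.5 nM final) was preincubated with compounds for 15 min at room temperature in 100 mM sodium acetate pH 5.5, 5 mM DTT, 0.01% Triton X-100. Reaction started with 2 uM Z-FR-AMC; AMC fluorescence change over 60 s gave activity.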
Marburg entry inh: Marburg virus entry inhibition; Potency, µM (doses to about 37.8 µM), inactives show at the highest dose activity change, negative = inhibition, most hits filed as inhibitors; AID 540276; Marburg virus pseudotyped entry inhibition, cell reporter; control for the full effect not named in the record; about a third of the inactives were read at about 46 µM; 300,000 tested, 1.8% active; active = well fitted inhibition curve with a large enough effect; inconclusive = small, poorly fitted or top-dose-only effect, or effect the other way; inactive = flat fitted curve, though single readings scatter; tested in HEK293 cells; about a fifth of its hits are not listed in these tables; also: % is scaled to controls: 0 for no effect and ±100 for the full control effect; luciferase read-out
Lassa entry inh: Lassa virus entry inhibition | Lassa virus pseudotype entry inhibition, cell reporter; control for the full effect not named in the record | Potency, µM (doses to about 37.9 µM), inactives show at the top dose activity change, negative = inhibition, most hits filed as inhibitors | 300,000 tested, 1.2% active; active means well fitted inhibition curve with a large enough effect; inconclusive means small, poorly fitted or top-dose-only effect, or effect the other way; inactive means flat fitted curve, though single readings scatter; tested in HEK293 cells; also: % is scaled to controls: 0 for no effect and ±100 for the full control effect; nearly all actives have a fitted effect of over 50% in size; luciferase read-out
StopGo reporter: lowers the luciferase signal of an FMDV 2A StopGo reporter; 410,000 tested, 1.2% active; Potency, µM (top dose mostly 57.9 µM), for the others: top-dose signal change, negative = less light; human cells with a luciferase reporter of 2A StopGo recoding; control for the full effect not named in the record; active = well fitted falling curve with a large enough effect; inconclusive = small, poorly fitted or top-dose-only effect; inactive = no such curve, though single readings can be large or run the other way; tested in HEK293T cells; also: % is scaled to controls: 0 for no effect and ±100 for the full control effect; nearly all actives have a fitted effect of over 45% in size; luciferase light after 4 h
Cruzain inh noDet: blocks cruzain activity in detergent-free assay; P25779; purified cruzain, Z-FR-AMC fluorescence, no detergent; Potency, µM, for inactives: max response, negative = inhibition, actives largely listed as inhibitors; 200,000 tested, 2.3% active; AID 1476;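 also: plate controls were enzyme without inhibitor for no effect and buffer without enzyme for full effect; nearly all actives have a fitted effect of over 40% in size; top concentration of the series not given in the record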
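Purified cruzain at 1.5 nM, pre-incubated 15 min with compound at room temperature in 100 mM sodium acetate pH 5.5, 5 mM DTT, 0.00005% Triton X-100. Reaction started with 2 uM Z-FR-AMC; AMC fluorescence increase over 60 s gives rate.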
RE007 growth inh: less growth of the S. pombe RE007 Vpr strain | S. pombe RE007 Vpr strain, BacTiter-Glo ATP luminescence, 24 h; control for the full effect not named in the record | Potency, µM (series often up to 92.2 µM), for the others: at the top dose activity change, negative = less growth | 360,000 tested, 0.21% active; active = well fitted falling curve with a large enough effect; inconclusive = small, poorly fitted or top-dose-only effect; inactive = no such curve, though single readings can be large or run the other way;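 also: % is scaled to controls: 0 for no effect and ±100 for the full control effect; nearly all actives have a fitted effect of over 50% in size; the assay follows cell death caused by Vpr and the record does not say whether a fall means rescue or toxicity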
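Fission yeast strain RE007, carrying one chromosomally integrated HIV-1 vpr copy, was seeded at OD 0.01 in PMG+AL medium with 23 nL pinned compound. After 24 h at 30 °C and 99% humidity, viability was read by BacTiter-Glo luminescence.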
Starred values were filed as active, the others as inactive; ? = inconclusive; . = not tested or not shown; & = joins results of further samples; [ ] = another dose, or the depositor's remark. Unless noted, calls follow the shape of the dose curve; as a rule, active = well fitted curve in the direction sought with a large enough effect; inconclusive = small, poorly fitted or top-dose-only effect, or another doubt; inactive = no such curve, though single readings can be large; an effect the other way counts as inactive or inconclusive. Potency is read from the fitted curve at half-maximal effect.

SMILES	SARS PLpro yeast	NS1 inh	Cruzain inh Det	Marburg entry inh	Lassa entry inh	StopGo reporter	Cruzain inh noDet	RE007 growth inh
Clc1cccc(Nc2ncnc3c2cnn3-c2ccccc2)c1	-13%	-105%	-5.6%	.	.	3%	-27%	-2%
Nc1cccc(C(=O)OCC(=O)c2ccccc2)c1	3%	12%	-1.6%	?	5%	21%	-3%	-8%
COc1ccc(-n2nnnc2/C=C\Nc2ccc(C)cc2)cc1	2%	-2%	.	1%	?	22%	.	-15%
CN(C(=O)COC(=O)c1ccccc1Cc1ccccc1)c1c(N)n(Cc2ccccc2)c(=O)[nH]c1=O	-4%	.	.	-28%	-26%	-26%	.	6%
CS(=O)(=O)N(CCc1ccccc1)CC(=O)N1CCCC1	1%	-2%	.	8%[46.1 µM]	-19%[46.1 µM]	-2%	.	38%
CCOc1ccc(CNC(=O)c2sc3ncnc(N(C)C4CCCCC4)c3c2C)cc1	.	.	-4.0%	.	8%[46.1 µM]	0%	9%	.
COc1ccc(C(CC(=O)N2CCCC(C)C2)c2c(O)cc(OC)cc2OC)cc1 (stereo not given)	0%	-4%	.	.	.	11%	.	16%
CCCc1[nH]nc2c1C(c1ccc(O)cc1OCC)C(C#N)=C(N)O2 (stereo not given)	1%	-2%	-1.3%	1%[46.1 µM]	2%	-16%	10%	11%
O=C(CSc1nc2ccccc2c(=O)n1Cc1ccco1)N1CCCC1	0%	-6%	.	-7%	3%	-11%	.	8%
CCCS(=O)(=O)N1CCN(Cc2ccccc2OCC)CC1	-3%	-6%	3.0%	-15%	-4%	-13%	4%	-2%
COCCNC(=S)NC1CC2CCCC(C1)N2Cc1ccco1 (stereo not given)	6%	-4%	6.2%	?	2%	.	-1%	-7%
c1ccc2c(c1)nc(N1CCOCC1)c1nnnn12	-2%	14%	-1.3%	0%	.	29%	-12%	3%
Cc1ccc(N2CCOCC2)c2c1C(=O)c1ccccc1C2=O	-16%	.	-6.6%	?	?	?	?	4%
O=C(NC1CCCC1)c1cc2c(ccc3ccccc32)o1	1%	-6%	-15%	?	?	2%	-4%	-16%
Nc1ccc2nc[nH]c2c1	-8%	.	.	-18%[46.1 µM]	?	-29%	.	-7%
CCCC1(CCC)NC(=O)N(CC(=O)Nc2ccccc2OC)C1=O	6%	-4%	-0.2%	-7%	0%	1%	6%	-7%
Cc1cc(Nc2ccccc2Cl)n2nc(-c3ccco3)nc2n1	.	.	-1.0%	.	1%[46.1 µM]	-23%	-3%	.
COc1cc2cc(CN(Cc3cccnc3)C(=O)Nc3ccccc3)c(=O)[nH]c2cc1OC	0%	-30%	.	3%[46.1 µM]	-4%	-7%	.	13%
O=C(NC1CCCCC1)C(c1ccncc1)N(C(=O)c1csnn1)c1ccccc1 (stereo not given)	-7%	9%	.	2%[46.1 µM]	0%	1%	.	-8%
C=CCO/N=C/C1C(=O)CC(C)(C)CC1=O	26%	6%	-0.3%	-3%[46.1 µM]	-1%	17%	6%	0%
CCCCn1c(C(C)NC(=O)c2cccs2)nc2ccccc21 (stereo not given)	-2%	-11%	-0.6%	-14%	0%	-28%	-5%	-10%
Cn1c(=O)cc(SCC(=O)N2CCOCC2)c2ccc(Cl)cc21	1%	11%	-2.2%	?	-15%	-14%	0%	8%
CCN(Cc1cnn(C)c1)C(=O)CC1C(=O)NCCN1Cc1cccc(OC)c1OC (stereo not given)	-1%	4%	.	?	-10%	-4%	.	5%
CCCN(C(=O)c1cn(C)c(=O)c2cc(OC)c(OC)cc12)c1ccc(CC)cc1	.	.	-4.1%	.	-2%[46.1 µM]	-16%	?	.
O=C(c1cccnc1)C1CCCN(Cc2nc(-c3cnccn3)no2)C1 (stereo not given)	-1%	0%	.	.	.	-6%	.	1%
COc1ccc(S(=O)(=O)N2CCCC(C(=O)N3CCOCC3)C2)cc1C (stereo not given)	-1%	4%	2.8%	0%	10%	-25%	10%	12%
O=[N+]([O-])c1ccc(N2CCN(CCO)CC2)cc1NCc1ccco1	2%	14%	-7.5%	0%	-9%	0%	-10%	18%
O=C(O)CSc1nnc(C2CC2)n1-c1ccccc1	2%	-7%	3.6%	8%	?	-1%	-11%	7%
COc1ccc(C(=O)C2CCN(C(=O)c3ccc(OC)cc3)CC2)cc1	2%	2%	.	?	?	-2%	.	-5%
COc1ccc(/C=N/NC2=NS(=O)(=O)c3ccccc32)cc1	2%	5%	.	.	.	9%	.	6%
COc1ccc(C(=O)NCC(=O)OCC(=O)Nc2sccc2C#N)cc1OC	4%	.	.	0%	-2%	41%[activator]	.	3%
Cc1ccccc1NC(=S)Nc1ccc2[nH]c(=O)[nH]c2c1	1%	4%	.	-12%[46.1 µM]	23%[46.1 µM]	-15%	.	-8%
CCOC(=O)COc1ccc(/C=C(\C#N)c2nc3ccc(C)cc3[nH]2)cc1OC	.	.	-2.8%	0%[46.1 µM]	-3%[46.1 µM]	-14%	?	.
CCN(CC)C(=O)CN1C(=O)C(=O)c2ccccc21	1%	0%	.	?	8%[46.1 µM]	-7%	.	-9%
COc1ccc(CNC(=O)CN(CC2CCCO2)C(=O)CNS(=O)(=O)c2ccc(C)cc2)cc1 (stereo not given)	-1%	-3%	3.9%	3%&-15%	-20%	-11%	26%	-7%
CCCCN(CC)CCNC(=O)c1cc2c(=O)n(C)c3ccccc3c2n1C	?	-2%	-22%	.	.	-5%	-24%	-12%
O=C(Nc1cccc(-c2csc(Nc3ccccc3)n2)c1)c1ccccc1	-13%	-42%	.	.	.	5%	.	-14%
CCCOc1c(Br)cc(C(=O)NCC)cc1OC	-4%	8%	0.6%	-14%[46.1 µM]	3%	-11%	-1%	-2%
Cc1ccc(-c2nc(S(=O)(=O)c3ccc(C)cc3)c(SCC(N)=O)o2)cc1	1%	13%	.	?	?	15%	.	1%
Cc1cccc(NC(=O)C2CCCN2/C=C/C(=O)C(F)(F)F)c1C (stereo not given)	?	-4%	-6.0%	-4%	1%	-13%	7%	-1%
Cc1ccc(CSc2nc3c(c(=O)[nH]2)CCC3)cc1	-7%	3%	3.7%	-15%	-15%	16%	?	4%
O=C(NCCCN1CCOCC1)c1ccc(CSCc2cccc(Cl)c2)o1	0%	.	.	?	?	-22%	.	7%
O=C(CCCN1C(=O)c2ccccc2C1=O)N1CCN(c2ccccn2)CC1	3%	-3%	5.6%	5%	-1%	0%	4%	-14%
Cc1cc(C)n(CC(=O)c2ccc(Cl)cc2)n1	1%	-2%	.	-7%	-1%	-7%	.	-7%
Fc1ccc(Nc2nc(-c3cccc(Cl)c3)c3c(n2)-c2ccccc2OC3)cc1	.	.	-2.6%	-1%[46.1 µM]	15%[46.1 µM]	-21%	1%	.
COc1ccccc1N1CCN(Cc2c(F)cccc2F)CC1	-8%	-10%	14%	5%	8%	-13%	-1%	-6%
O=C(CSc1nc2c(sc3ccccc32)c(=O)n1-c1ccccc1)NCc1ccco1	-1%	?	-14%	?	?	-7%	?	10%
OCCN1CCOCCOCCN(CCO)CCN(CCO)CC1	10%	-3%	8.0%	6%	-2%	-13%	5%	5%
O=C(CCC1CC(=O)Nc2ccccc21)NCc1cccnc1 (stereo not given)	-8%	?	0.8%	10%	0%	-8%	-8%	4%
O=C(O)CCCC(=O)N1CCN(C(c2ccccc2)c2ccccc2)CC1	23%	1%	-0.9%	.	.	2%	6%	-8%

Continuation.
SMILES	SARS PLpro yeast	NS1 inh	Cruzain inh Det	Marburg entry inh	Lassa entry inh	StopGo reporter	Cruzain inh noDet	RE007 growth inh
CC(=O)N1CCc2cc(CNC(=O)Nc3ccc(Br)c(C)c3)ccc21	.	.	-0.3%	.	-14%[46.1 µM]	-22%	-9%	.
O=C(O)c1c2c(nc3ccccc13)/C(=C/c1ccccc1[N+](=O)[O-])CCC2	-2%	-3%	.	8%[46.1 µM]	-12%[46.1 µM]	0%	.	2%
Cc1ccc(-n2nnnc2CNC(=O)c2ccccc2)cc1C	.	.	2.3%	.	-16%[46.1 µM]	-4%	-9%	.
CC(=O)Oc1ccc(C(=O)Nc2ccc3c(c2)OCCO3)cc1	-11%	-10%	.	?	?	-25%	.	-8%
CC1CC(=O)NN=C1c1cccs1 (stereo not given)	-1%	-6%	.	.	.	-15%	.	-13%
Cc1cc(C)c(NC(=O)CS(=O)CC(=O)Nc2cccnc2)c(C)c1 (stereo not given)	8%	-4%	4.3%	-11%	1%	-20%	-6%	3%
C/C(CC(=O)NC1CCCCC1)=N\NC(=O)Cc1ccc(-c2ccccc2)cc1	2%	.	.	-12%[46.1 µM]	-3%	2%	.	-21%
COc1ccc(N2CCN(C(=O)COC(=O)c3ccco3)CC2)cc1	2%	-1%	.	-6%	9%	13%	.	5%
O=c1[nH]c(CN2CCCCC2)nc2ccccc12	5%	-3%	4.7%	2%	10%	6%	3%	-3%
CC(=O)N1c2ccc(S(=O)(=O)N3CCCCC3)cc2CC1C(=O)NCc1ccccc1C (stereo not given)	2%	6%	.	.	.	-1%	.	7%
Cc1cc(C)cc(OC(=O)CCN2C(=O)c3ccccc3C2=O)c1	?	-11%	-17%	17%	2%	5%	-13%	-22%
COC(=O)c1c(C)[nH]c(C(=O)CSc2ncnc3sc(-c4ccccc4)cc23)c1C	-6%	2%	-1.5%	-23%	-5%	-24%	-24%	12%
O=C(c1ccc(Oc2ccc([N+](=O)[O-])cc2)cc1)N1CCCCCC1	-2%	-39%	.	5.6µM*	?	-22%	.	-3%
COc1cccc(CNC(=O)CN2C(=O)CCn3nc(-c4cn(C)c5ccccc45)cc32)c1OC	.	.	-0.6%	.	24%[46.1 µM]	5%	-2%	.
COc1cc(/C=N/NC(=O)c2ccncc2)ccc1OCCN1CCCCC1	-11%	0%	-6.6%	14%	-2%	-7%	-9%	-5%
COc1cc(/C=N/NC(=O)c2cccnc2)ccc1OS(=O)(=O)c1ccc(C)cc1	4%	15%	-9.2%	-18%	1%	2%	?	-6%
